# High-throughput results as filed in PubChem.
# fixLJ activator: activators of Burkholderia fixLJ two-component system | B. multivorans fixK-promoter GFP reporter, 18 h; hits give high values | z-score (no concentration beside the values) | 29,000 compounds, 0.3% hits | AID 1918990;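 active = replicate mean overnight rise in green fluorescent reporter signal, 3 or more SD over negative controls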;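 also: score is relative to vehicle wells of the plate; 300 nL library stock went into each well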
# * hit, by the source's call. Some of the compounds tested; rates above refer to the full screens.
SMILES,fixLJ activator
Cc1cc(C)cc(N(CC(=O)Nc2ccc(C(F)(F)F)cc2)S(=O)(=O)c2c(C)[nH]c(=O)[nH]c2=O)c1,-1.61
COc1ccc(OCc2nc3c4c(-c5ccccc5)c(-c5ccccc5)oc4ncn3n2)cc1,-1.42
CCC(C(=O)NCC1(CO)CCC1)n1cc(C(C)=O)c2ccccc21 (stereo not drawn),-1
COc1ccc(-n2cc(C(C)NC(=O)CCSC)cn2)cc1 (stereo not drawn),-1.09
CCCN(CCC)CCCNC(=O)c1cn(C)c2ccc(S(=O)(=O)N3CCOCC3)cc2c1=O,-1.07
Cn1c(=O)c2cc(C(=O)N3CCN(c4cccc(C(F)(F)F)c4)CC3)sc2c2ccccc21,-0.33
COc1ccc(Cn2c(SCc3ccc(C(=O)NCCc4ccccc4)cc3)nc3cccnc32)cc1,-0.8
COc1ccccc1OCC(=O)NCc1nc(-c2ccc(Cl)cc2)no1,-1.72
Cc1c(C(=O)OC2CCCCCC2)[nH]c2c1C(=O)CC(c1ccc(N(C)C)cc1)C2 (stereo not drawn),-0.03
COc1ccc(S(=O)(=O)c2c(C(=O)c3ccc(C)c(C)c3)cnc3ccc(C)cc23)cc1,-1.54
CCN(CC)C(=O)Cn1c(=O)n(-c2ccc(Cl)cc2)c(=O)c2c3c(sc21)CCC3,0.12
CCOc1nc(NC(=O)NS(=O)(=O)Oc2ccccc2)nc(-c2ccccc2)n1,-2.11
CN1CCC[C@]2(C(=O)O)CCN(C(=O)c3ccc(C(F)(F)F)cc3)C[C@H]12,0.07
Cc1sc(-c2ccno2)cc1S(=O)(=O)N1CCCN(c2ncccn2)CC1,-1.82
OC1CN(c2ccc(-c3nc(-c4cccc(Cl)c4)no3)cn2)C1,0.98
CCN1CCN(C(=O)C2(C)CCc3c(C)c(O)c(C)c(C)c3O2)CC1 (stereo not drawn),-0.63
NC(=O)C1CC=CCC1NC(=O)c1ccc(CSc2ccccn2)cc1 (stereo not drawn),-0.41
CCOC(=O)CC(NC(=O)c1cc2c(=O)n3cccc(C)c3nc2s1)c1ccc(OCC)c(OC)c1 (stereo not drawn),-0.71
Cc1ccc(C(=O)c2oc3ccccc3c2NC(=O)COc2ccc(C(C)C)cc2)cc1,-1.15
COc1ccc(-c2nnc(C3CCN(C(=O)c4ccccc4F)CC3)o2)cc1,-1.55
Cc1cc(N2CC(O)C(CS(=O)(=O)N(C)C)C2)nc(-c2ccccc2O)n1 (stereo not drawn),-2.36
Cc1cccc(CNC(=O)CSCc2cnn(-c3ccccc3)c2-n2cccc2)c1,-0.37
CNC(=O)c1ccc(S(=O)(=O)NC2CCCC2OCc2ccccc2)cc1 (stereo not drawn),0.3
CC(C(=O)O)c1ccc2c(c1)Cc1cccnc1O2 (stereo not drawn),-1.12
COc1ccc2nc3sc(C(=O)Nc4ccccc4F)cc3cc2c1,-0.6
O=C(COc1ccc(F)cc1)Nc1ccc(OCc2cc(=O)n3ccsc3n2)cc1,-0.76
COc1ccccc1OCc1nnc(-c2ccccc2)o1,-1.31
CCC1CCc2c(sc(NC(=O)C3c4ccccc4Oc4ccccc43)c2C#N)C1 (stereo not drawn),-0.24
COc1c[nH]c(CN(Cc2ccco2)Cc2cccs2)cc1=O,0.61
CCCn1c(-c2cccc(Br)c2)nc2ccccc21,-1.36
CCc1nn(CCCN2CCN(c3cccc(Cl)c3)CC2)c(=O)n1CCOc1ccccc1,-2.05
CCC(=O)N1CCc2cc(S(=O)(=O)NC(CC(C)C)C(=O)NCCc3cccc(C)c3)ccc21 (stereo not drawn),-1.72
Cc1cccc(NC(=O)C2CCN(S(=O)(=O)c3c(C)noc3/C=C/c3ccco3)CC2)c1,-0.74
C=CCCC(=O)N1CCC(O)[C@]2(CCCN(C(=O)c3ccc(C)c(C)c3)C2)C1 (stereo partly drawn),-0.81
CCOc1cc(C#N)c(NC(=O)Cn2nnc(-c3ccc(C)cc3)n2)cc1OCC,-2.4
COc1ccc(NC(=O)Cn2c(=O)n(Cc3ccc(C(=O)NCc4ccccc4Cl)cc3)c(=O)c3ccccc32)cc1,-0.68
CC1CCN(S(=O)(=O)c2ccc3c(c2)N(CC(=O)NCCN(C)C)C(=O)CO3)CC1,0.13
Cc1ccc2cc3cc(C(=O)N4CCN(c5ccc(Cl)cc5)CC4)oc3nc2c1,-1.3
Cc1c(Cl)cccc1NC(=O)Cn1nc(C(F)(F)F)c2c1CCC2,-1.65
CC(=O)Nc1ccc(C)cc1NC(=O)CCSc1nnc(-c2ccncc2)o1,0.36
COc1ccc(-n2nc(C(=O)Nc3ccccn3)c3c4ccccc4n(C)c3c2=O)cc1,-0.73
O=C(CCCn1ncn2c(cc3occc32)c1=O)NCc1ccccc1F,-2.77
Cc1c(C(=O)NCc2cc(=O)[nH]cn2)[nH]c2ccc(F)cc12,-1.48
CC(C)(O)c1cn(C2CCN(C(=O)CCC(=O)N3CCCCCC3)CC2)nn1,-0.36
CC(C)(C)C1CCc2c(sc(NC(=O)c3cccc(Cl)c3)c2C(=O)NCc2ccco2)C1 (stereo not drawn),-1.01
Cn1cnc2c(=O)oc3ccc(S(=O)(=O)N4CCN(c5ccccc5)CC4)cc3c21,0.19
CCCCN(CCCC)CCNC(=O)Cn1nc(CC)n2c(cc3sc(C)cc32)c1=O,-2.06
CN1CCN(C2CCN(C(=O)c3ccc4[nH]ccc4c3)CC2CCC(=O)O)CC1 (stereo not drawn),1.27
COc1cccc(CNC(=O)N2CCOCC(CN(C)C)C2)c1 (stereo not drawn),-2.86
c1ccc2c(CN3CCn4nc(CNc5cnccn5)cc4C3)cccc2c1,-0.36
COc1ccc2nc(NC(=O)c3nc(S(=O)(=O)Cc4ccccc4)ncc3Cl)sc2c1,0.87
C#C[C@]1(OC(C)=O)CCC2C3CCC4=CC(=O)CC[C@@H]4C3CC[C@@]21C (stereo partly drawn),1.41
O=C1c2ccccc2-c2onc3c(NCCO)cc(NC4CCCCC4)c1c23,-1.7
CCCSCCCNC(=O)CN1C(=O)COc2ccc(S(=O)(=O)N3CCC(C)CC3)cc21,-0.92
CN1CCN(CC2CCCN(c3nnnn3-c3ccccc3)C2)CC1 (stereo not drawn),-0.83
Cc1c[nH]c(CNC(=O)CSC23CC4CC(CC(C4)C2)C3)c(C)c1=O,0.73
COc1ccc(C(=O)NCCc2nc3ccccc3[nH]2)cc1,0.43
CCOc1ccc(-c2nnc(SCC(=O)c3ccc(Br)cc3)n2-c2ccccc2)cc1,-1.38
CCOC(=O)N1CCc2c(sc3c2C(=O)NC(c2ccc(N(C)C)cc2)N3)C1 (stereo not drawn),-2.28
O=C(C1CCCN(S(=O)(=O)c2ccc(Br)s2)C1)N1CCN(c2ccccc2F)CC1 (stereo not drawn),0.35
# (cont.)
SMILES,fixLJ activator
COc1cc(/C=C/c2nc(C#N)c(N3CCC(C)CC3)o2)cc(OC)c1OC,2.16
Cc1sc2ncn(CC(=O)N3CCN(c4ccccc4)CC3)c(=O)c2c1S(=O)(=O)N1CCC(C)CC1,-3.03
CCN(CC(O)c1cccc(O)c1)C(=O)Nc1cc(C(=O)OC)ccc1OC (stereo not drawn),-0.67
O=S1(=O)N=C(Nc2cccc(C(F)(F)F)c2)c2ccccc21,-1.57
CCc1ccccc1NC(=O)c1nnn(CC(=O)Nc2c(C)cc(C)cc2C)c1N,-1.67
O=C(Cn1c(=O)n(Cc2ccc(F)cc2)c(=O)c2sc3ccccc3c21)Nc1ccc(F)cc1F,-0.47
Cc1cc(C2CCCN2C(=O)NCc2c(C)ccc3ncccc23)no1 (stereo not drawn),-0.07
COc1ccc(CNC(=O)CCc2c(C)c3cc4c(C)c(C)oc4cc3oc2=O)cc1,0.34
Oc1c(I)cc(Cl)c2cccnc12,0.45
CCOc1ccccc1NC(=O)CCc1nc(-c2cccc(C)c2)no1,-1.48
Cc1ccccc1CNC(=O)c1ccc2nc(SCc3ccc(F)cc3)n(C)c2c1,0.31
COC(=O)c1nnn(CC(=O)NC(=O)Nc2cccc(C)c2C)c1C(=O)OC,0.41
Cc1n[nH]c(C)c1CCCN(C)C(=O)c1cc(-c2cccs2)n(C)n1,0.07
Cc1oc(-c2ccccc2F)nc1CN1CCC(C(=O)NCCc2ccc(Cl)cc2)CC1,-2.3
COc1cc(OC)cc(-c2cc3nc(C)c(CCC(=O)NCCc4cccc(C)c4)c(C)n3n2)c1,0.14

# 4 compounds picked at random from those above:
SMILES,fixLJ activator
Cc1ccccc1CNC(=O)c1ccc2nc(SCc3ccc(F)cc3)n(C)c2c1,0.31
COc1cc(/C=C/c2nc(C#N)c(N3CCC(C)CC3)o2)cc(OC)c1OC,2.16
CCOc1ccccc1NC(=O)CCc1nc(-c2cccc(C)c2)no1,-1.48
COC(=O)c1nnn(CC(=O)NC(=O)Nc2cccc(C)c2C)c1C(=O)OC,0.41

# Next section.
SMILES,fixLJ activator
CC(=O)c1ccc(NC(=O)Nc2sc3nc4n(c(=O)c3c2C)CCC(C)CC4)cc1 (stereo not drawn),-2.17
Cc1noc(C)c1CCC(=O)N1CCCN(C(=O)C2=NNC(=O)CC2)CC1,-1.21
CCOc1ccc(C(=O)Nc2cccc(NC(=O)c3ccc(Cl)cc3Cl)c2)cc1,-0.72
Cc1cc(C)cc(OCC(=O)NCCc2nc3ccccc3[nH]2)c1,0.37
CN(C)c1ncc(C=CC(=O)N2CCC(O)(CN3CCCC3)CC2)cn1,-0.18
Cc1nc2c(c(C)nn2-c2ccccc2)c(C)c1CCC(=O)NCc1ccccc1,-2.19
COCCN1CCC2(CCC(=O)N(Cc3cnc(C)cn3)C2)CC1,-0.04
Cc1csc(CCNc2nccc(N3CCC(O)C3)n2)n1 (stereo not drawn),-0.24
Cc1ccc(-c2c(C(=O)Nc3ccc(F)c(F)c3)oc(=O)c3ccccc23)cc1,-0.05
O=C(c1ccoc1)N1CCCN(CC(=O)N2CCOc3ccccc32)CC1,-5.58
COC(=O)C(c1ccccc1)n1ccnc1-c1cccc2nonc12 (stereo not drawn),0.65
Cc1c2cnn(-c3ccccc3)c(=O)c2c(C)n1CC(=O)N1CCN(c2ccc(F)cc2)CC1,-1.85
CCN(Cc1ccccc1)C(=O)CN(c1ccc(OC)cc1)S(=O)(=O)c1c(C)nn(C)c1C,-1.85
Cc1ccc(C)c(CN2C(=O)c3ccccc3S(=O)(=O)c3ccc(C(=O)NCCc4ccc(Cl)cc4)cc32)c1,0.22
CN1Cc2ccccc2CC1C(=O)N1CCCN(C(=O)c2cscn2)CC1 (stereo not drawn),1.38
Cc1nc(-c2cccnc2)ncc1C(=O)N1CC(CO)C(CN2CCCCC2)C1 (stereo not drawn),0.08
COc1ccc(-n2c(SCC(=O)O)nnc2-c2cn[nH]c2)cc1,0.98
COc1cccc(-n2c(-c3cccc(F)c3)nc3c(cnn3-c3ccc(C)cc3)c2=O)c1,-2.31
Cc1ccccc1C(=O)Nc1sc2c(c1C(=O)O)CCC(C(C)(C)C)C2 (stereo not drawn),-2.63
COc1cnc(NS(=O)(=O)c2ccc(N)cc2)nc1,0.08
Cc1ccc(S(=O)(=O)c2nc(-c3ccco3)oc2SCC(=O)c2ccc(Cl)cc2)cc1,-0.36
Cc1c(C(=O)N(C)C2C[C@H]3CC(=O)N(C)C[C@H]3C2)[nH]c2ccc(Cl)cc12 (stereo partly drawn),-0.77
CCc1ccc(NC(=O)Cn2c(=O)n(CCC(=O)N3CCc4ccccc4C3)c(=O)c3ccccc32)cc1,-0.22
Cc1cc(NC(=O)c2csc(C(C)C)n2)ccc1N1CCCC1=O,-0.08
O=C(CSc1nnc(CNC(=O)c2ccccc2)n1-c1cccc(Cl)c1)Nc1ccccc1F,0.36
O=C(c1cc(-c2cccc(Cl)c2)on1)N1CCCCC1,-0.64
CCOC(=O)c1c(NC(C)=O)c2c3c(sc2n1Cc1nc(-c2cccc(Cl)c2)oc1C)CCCC3,-1.06
Cc1ccc(Nc2c(-c3ccc(N4CCOCC4)cc3)nc3ncccn23)cc1C,-1.02
COc1ccc(C(=O)NCCn2cc(SCC(=O)Nc3ccc4c(c3)OCCO4)c3ccccc32)cc1,1.68
COc1ccc(NC(=O)CSc2nc(-c3cccs3)cc(C(F)(F)F)c2C#N)cc1,-0.79
COc1cc(OC)cc(-n2c(=O)c3sccc3n(Cc3c(C)cc(C)cc3C)c2=O)c1,-0.27
CNC(=O)Cn1cc(NC(=O)c2cc(-c3cccnc3)nc3ccccc23)cn1,0.77
O=C(Nc1ccc2oc(-c3cccnc3)nc2c1)c1ccc(-c2ccccc2)o1,-1.44
CCc1ccc(CNC(=O)CSc2c3c(nc4ccc(Cl)cc24)CCCC3)cc1,-0.83
CC(C)Cc1cc(C(=O)Nc2nnc(SC(C)C)s2)no1,-1.85
Cc1ccc(-n2c3nc(=O)[nH]c(=O)c-3cc3c(C)nn(-c4ccccc4)c32)cc1C,0.44
COc1ccc(-c2[nH]c(-c3ccc(C)cc3)nc2SCC(=O)NCC2CCCO2)cc1 (stereo not drawn),-1.07
CCOC(=O)c1nnc2c(-c3ccc(F)cc3)c(C)nn2c1N,0.61
O=S(=O)(Nc1c(F)cccc1F)c1ccc2c(c1)OCCO2,-1.75
CCOC(=O)N1CCC(NC2CCN(c3ccc(Cl)nn3)CC2)CC1,-1.46
CN(Cc1nc2ccccc2s1)C(=O)c1cnc(-c2cccnc2)nc1,-0.32

# Three entries out of the list, arranged by length of the SMILES, low to high.
SMILES,fixLJ activator
CCOC(=O)c1nnc2c(-c3ccc(F)cc3)c(C)nn2c1N,0.61
COc1cc(OC)cc(-n2c(=O)c3sccc3n(Cc3c(C)cc(C)cc3C)c2=O)c1,-0.27
Cc1ccc(-n2c3nc(=O)[nH]c(=O)c-3cc3c(C)nn(-c4ccccc4)c32)cc1C,0.44

# Grouped by structure: the compounds so far with a COOH group
SMILES,fixLJ activator
CN1CCC[C@]2(C(=O)O)CCN(C(=O)c3ccc(C(F)(F)F)cc3)C[C@H]12,0.07
CC(C(=O)O)c1ccc2c(c1)Cc1cccnc1O2 (stereo not drawn),-1.12
CN1CCN(C2CCN(C(=O)c3ccc4[nH]ccc4c3)CC2CCC(=O)O)CC1 (stereo not drawn),1.27
COc1ccc(-n2c(SCC(=O)O)nnc2-c2cn[nH]c2)cc1,0.98
Cc1ccccc1C(=O)Nc1sc2c(c1C(=O)O)CCC(C(C)(C)C)C2 (stereo not drawn),-2.63

# 2 successive entries from above:
SMILES,fixLJ activator
Cc1csc(CCNc2nccc(N3CCC(O)C3)n2)n1 (stereo not drawn),-0.24
Cc1ccc(-c2c(C(=O)Nc3ccc(F)c(F)c3)oc(=O)c3ccccc23)cc1,-0.05
